Assay outcomes from PubChem BioAssay.
PK Bst: modulators of Bacillus stearothermophilus pyruvate kinase; Potency, µM; 1.2% of 51,000 active; partly purified Bacillus stearothermophilus pyruvate kinase, luminescence ATP production; ribose 5-phosphate activator present at AC10; AID 361; in the data active means potency below about 11 µM; inconclusive means mostly about 12 µM to 25 µM; inactive means weaker than that;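 the screen sought inhibitors and activators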;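 also: potency is read from the fitted curve at half-maximal effect; scaled between full activation by ribose 5 phosphate and full inhibition by luteolin; about four in five hits inhibit and the cells do not say which; series up to 57 µM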
YjeE inh: inhibitors of E. coli YjeE (TsaE). purified YjeE, fluorescence polarisation of a bound ADP probe. Potency, µM. 0.05% of 71,000 active. AID 605; active = well fitted falling curve; inconclusive = weaker or top-dose-only fall, or a rising curve; inactive = flat or poorly fitted curve;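 also: top concentration of the series not given in the record; excess ADP was the control for the full effect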
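Purified YjeE (10 uM) with BODIPY Texas Red-labeled ADP probe (2 uM); compounds pin-transferred, 15 min at room temperature. Binding inhibition read as decreased fluorescence polarization; ADP titration as control.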
The depositor's hits bear a star; i = inactive; ? = inconclusive; / = no result given. Only part of the results is shown; count on the stated rates, not on these rows.

PK Bst,YjeE inh,Molecule
>57,i,COc1ccccc1NC(=O)N1CCN(c2ncccn2)CC1
/,i,COC(=O)[C@@]1(Cc2ccc(OC)cc2)[C@H]2c3cc(C(=O)N4CCCC4)n(Cc4cc(C)n(C)n4)c3C[C@H]2CN1C(=O)c1ccccc1
>57,i,CCOC(=O)C1=C(c2ccccc2)Nc2ncnn2C1c1ccccn1 (stereo not drawn)
>57,i,COc1ccc(CCN(Cc2nc(-c3ccccc3)no2)Cc2nc(-c3ccccc3)no2)cc1OC
>57,i,O=C(c1ccc(C#CC2(O)CCCCC2)cc1)N1CCOCC1
/,i,CCn1cc(Br)c(C(=O)Nc2ccc(C(=O)OC(C)C)cc2)n1
>57,i,Cn1c(CCCNC(=O)c2ccccc2)nc2ccccc21
>57,i,Nc1nn(S(=O)(=O)c2cccc3nsnc23)cc1-c1ccc(Br)cc1
>57,i,Cc1cccn2c(=O)c3cc(C(=O)NCc4ccccn4)n(C)c3nc12
>57,i,Cn1c(=O)oc2cc(S(=O)(=O)N3CCN(C(=O)c4ccco4)CC3)ccc21
/,i,COCc1cc(C)nc2sc(C(=O)N3CCN(c4ccccc4)CC3)c(N)c12
>57,i,COc1cccc(-c2csc(N3CCN(S(=O)(=O)c4ccc(F)cc4)CC3)n2)c1
>57,i,CCOC(=O)CN1C(=O)COc2ccc(Cl)cc21
/,i,O=C(NCc1ccc2c(c1)OCO2)C1CCCN(S(=O)(=O)c2cccs2)C1 (stereo not drawn)
>11,i,Cc1cnn(C(=O)c2oc3ccccc3c2C)c1
/,i,c1ccc(-c2nn3c(-c4ccccc4)nnc3s2)cc1
>57,i,COC(=O)COc1ccc(S(=O)(=O)NCc2ccncc2)cc1
>57,i,COc1ccc(C(=O)Cn2c(N3CCOCC3)nc3c2c(=O)n(C)c(=O)n3C)cc1
>57,i,CCOC(=O)c1cccc(NC(=O)CSc2nc3ccccc3c(=O)n2CC)c1
/,i,N#Cc1cccc(NC(=O)N2CC[C@@]3(CCCN(C(=O)c4ccco4)C3)C2)c1
>57,i,O=C(Nc1cnc2ccccc2c1)c1cccc(-n2cnnn2)c1
>57,i,O=C(NC1CCCCCC1)C1c2ccccc2C(=O)N1CCCN1CCOCC1 (stereo not drawn)
/,?,O=C1OC2(c3ccc(O)cc3Oc3cc(O)ccc32)c2c1c(-c1ccccc1)c(-c1ccccc1)c(-c1ccccc1)c2-c1ccccc1
>57,i,O=C(NCCCn1ccnc1)C1CC(c2cccc(Br)c2)=NO1 (stereo not drawn)
/,i,CN(C)c1ncc2nc(-c3ccc(Cl)cc3)c(=O)n(C[C@H]3CCCO3)c2n1
>57,i,CCCC1=C(C(=O)OCC)C(c2ccc(F)cc2)n2ncnc2N1 (stereo not drawn)
>57,i,Cc1cc(C)c2[nH]c(=O)c(CN(CC3CCCO3)S(=O)(=O)c3ccc4c(c3)OCCO4)cc2c1 (stereo not drawn)
>57,i,COc1ccc(N(C(=O)c2cccnc2)S(=O)(=O)c2ccc3c(c2)n(C)c(=O)n3C)cc1
/,i,CC(C)[C@@H](C)/C=C\[C@@H](C)[C@@H]1CC[C@H]2C3=CC=C4C[C@@H](O)CC[C@]4(C)[C@H]3CC[C@]21C
3.6*,i,c1ccc(Nc2nc(-c3cccs3)cs2)nc1
/,i,Clc1ccc(Cl)c(Nc2ccnc(SCc3ccccc3)n2)c1
>57,i,CCOC(=O)Cc1csc(NC(=O)c2cccnc2)n1
>57,i,O=C(Nc1ccc(F)c(F)c1)c1ccc(F)c(S(=O)(=O)N2CCOCC2)c1
/,i,NC(=O)c1ccccc1-c1nc(-c2ccccc2)no1
/,i,O=C(c1cc(Br)ccc1O)c1cc(Br)ccc1O
>57,i,O=C1CN(C(=O)COC(=O)C2CC(=O)N(Cc3ccco3)C2)c2ccccc2N1 (stereo not drawn)
/,i,O=C(O)C1(P(=O)(c2ccccc2)c2ccccc2)CCC1
/,i,C[C@@H](C[C@H](N)C(=O)O)C(=O)O
/,i,C(=N\n1cnnc1)/c1ccc(-c2ccccc2)cc1
>57,i,Cc1nc2cc(C(=O)O)ccc2s1
/,i,CCCCOC(=O)Nc1ccccc1C(N)=O
>57,i,O=C(Oc1ccc2c(=O)c(Cl)coc2c1)c1ccncc1
/,i,O=C(c1cc(-c2cccnc2)nc2ccc(Br)cc12)N1CCN(c2ncccn2)CC1
>57,i,Cc1nn(Cc2ccc(Cl)cc2)c(C)c1NC(=O)c1cc(-c2ccco2)on1
/,i,Cc1ccc2oc(=O)c3cnn(CC(=O)NC4CCN(Cc5ccccc5)CC4)c3c2c1
>57,i,CCC1CCCCN1Cc1ccc(CNS(=O)(=O)c2ccc3c(c2)oc(=O)n3C)o1 (stereo not drawn)
/,i,Cc1nc2cnc(N3CCN(C)CC3)nc2n(C)c1=O
>57,i,COC(=O)c1[nH]c2ccccc2c1NC(=O)CN1CCCc2ccccc21
>57,i,Nc1nnc(SCc2ccccc2F)n1-c1ccccc1
>26,/,O=C(Nc1ncccc1Cl)c1cccc(F)c1
>57,i,CCOC(=O)CSc1nnc(CNC(=O)c2ccc(OC)cc2OC)n1-c1ccc(OC)cc1
>57,i,CN(c1cccc(NC(=O)CN2C(=O)c3ccccc3S2(=O)=O)c1)S(C)(=O)=O
>57,i,CCOc1ccccc1N1CCN(CC(O)COc2ccc3c(C)cc(=O)oc3c2)CC1 (stereo not drawn)
>57,i,Cc1ccc(NC(=O)CCn2cnc3ccccc3c2=O)cc1Cl
/,i,O=C1CCc2c(ccc3ccccc23)O1
/,i,Cn1cccc1Cc1nnc(SCC(=O)NCCc2ccccc2)n1-c1ccc(F)cc1
>57,i,CCOC(=O)c1cnc(-n2cc(C)cn2)nc1Nc1ccccc1OC
>57,i,Cc1nc(N2CCN(c3ccccc3)CC2)[nH]c(=O)c1Cc1ccccc1
>57,i,Cc1nnc(N(Cc2ccccc2)C(=O)c2cnccn2)s1
>57,i,COc1ccc(C2C(C(=O)Nc3cc(C)on3)c3ccccc3C(=O)N2C)cc1OC (stereo not drawn)

Reformatted field by field: three of the compounds above
CCOC(=O)c1cnc(-n2cc(C)cn2)nc1Nc1ccccc1OC
  PK Bst: >57	YjeE inh: i

O=C(Nc1ncccc1Cl)c1cccc(F)c1
  PK Bst: >26	YjeE inh: /

Cc1nc(N2CCN(c3ccccc3)CC2)[nH]c(=O)c1Cc1ccccc1
  PK Bst: >57	YjeE inh: i

Next compounds:
PK Bst,YjeE inh,Molecule
>11,/,Cc1cc(C)n(-c2nnc(C)n2/N=C/c2ccco2)n1
/,i,COCCN(CCOC)c1nc(C)nc2c1nc(-c1ccccc1)n2CCCN(C)C
>57,i,Cc1c(C(=O)NCCc2ccccc2)oc2ccc(S(=O)(=O)N3CCOCC3)cc12
/,i,NC(=O)CCN(Cc1ccccc1)S(=O)(=O)c1ccccc1
>57,i,COc1ccccc1OCc1ccc(C(=O)N2CCN(C(=O)c3ccco3)CC2)cc1
/,i,COC(=O)N1CCC2(CCN(C(=O)Nc3ccc(OC)cc3)CC2)CC1
/,i,COc1ccc(NC(=O)CCN2C(=O)C3CC=C(Cl)CC3C2=O)cc1 (stereo not drawn)
/,i,Cc1ccc2oc(=O)c3cnn(CC(=O)N4CCc5ccccc5C4)c3c2c1
/,i,Cn1c(=O)c(-c2ccc(Cl)cc2)nc2cnc(N3CCNCC3)nc21
>57,i,N#CC(C(=O)NCCc1ccccc1)c1nc2ccccc2nc1N1CCOCC1 (stereo not drawn)
/,i,O=C(c1sc2ccccc2c1Cl)N(Cc1ccco1)C1CCS(=O)(=O)C1 (stereo not drawn)
>26,/,CC(C)(C)C1=Nn2c(nnc2C2CCCCC2)SC1
>57,i,COc1cc(OC)c(OC)cc1CNC1CCCCCC1
>57,i,Cc1c(C(C)O)nnn1-c1nonc1N (stereo not drawn)
/,i,O=C(Nc1c(F)cc(F)cc1Br)c1cc(-c2ccc(O)cc2)on1
/,i,NS(=O)(=O)O
>57,i,Cn1c(=O)c2c(nc(CN3CCN(C(=O)c4ccco4)CC3)n2Cc2ccc(F)cc2)n(C)c1=O
>57,i,COc1cccc(-c2nc(-c3ccc(NC(=O)Cc4ccccc4OC)cc3)no2)c1
>57,i,CCN1CCc2c(sc(NC(=O)c3ccc(S(=O)(=O)N4CCOCC4)cc3)c2C(=O)OC)C1
/,i,CCc1c(O)nc(SCC(=O)Nc2ccccc2OC)[nH]c1=O
>57,i,COc1ccc(S(=O)(=O)NC(CC(=O)NCc2ccc3c(c2)OCO3)c2ccco2)cc1 (stereo not drawn)
>57,i,CCC(=O)N1CCc2cc(S(=O)(=O)CCC(=O)N3CCc4ccccc4C3)ccc21
>57,i,CCOC(=O)c1ccc(NC(=O)N2CC(C)OC(C)C2)cc1 (stereo not drawn)
>57,i,CCCCCOC(=O)c1ccc(NC(=O)c2ccco2)cc1
0.17*,i,C=C(c1cccc2ccccc12)P(=O)(O)O
/,i,CN(C)CC[C@@H](C(=O)C(C)(C)C)c1ccccn1
>57,i,C=CCN1C(=O)CN=C1Nc1cc(C)ccc1C
>57,i,CN1CCN(S(=O)(=O)c2cccc(C(=O)NC3CCCc4ccccc43)c2)CC1 (stereo not drawn)
>57,i,Cc1cc2oc(=O)c3c(c2cc1OCc1nn[nH]n1)CCCC3
>57,i,Cc1cccc(N2CCN(C(=O)COc3cc(=O)n(C)c4ccccc34)CC2C)c1 (stereo not drawn)
/,i,Cc1nc2c3cnn(-c4ccc(C)c(C)c4)c3ncn2n1
/,i,Cc1ccc(C(=O)CSC2=NC(N)=C(C#N)C3(CCCCC3)C2C(N)=O)cc1 (stereo not drawn)
>57,i,CC(CN1CCN(C)CC1)OC(=O)c1ccc(Cl)cc1 (stereo not drawn)
>57,i,CCC(=O)N1CCc2cc(OC)c(OC)cc2C1COc1ccc(C(=O)OC)cc1 (stereo not drawn)
>57,i,CC1CCCC(NC(=O)CC2Nc3ccccc3NC2=O)C1C (stereo not drawn)
>57,i,c1coc(-c2nc3nc4ccccc4nc3n2CC2CCCO2)c1 (stereo not drawn)
>57,i,CCOC(=O)c1cnc(SCC(=O)Nc2cc(OC)cc(OC)c2)nc1N
/,i,CCOC(=O)C1CCCN(C(=O)Cn2nc(Cc3cccnc3)c3ccccc3c2=O)C1 (stereo not drawn)
/,i,CC1=NN(c2ccc(S(=O)(=O)O)cc2)C(=O)/C1=C\c1ccc(Cl)cc1
/,i,O=C(C1CCC(CNc2c(N3CCCCC3)c(=O)c2=O)CC1)N1CCCCC1 (stereo not drawn)
>57,i,COc1nc(NCc2ccco2)nc(N2CCC(C)CC2)n1
>57,i,CC1(C)Cc2noc(N)c2C(C)(C)N1OC(=O)c1cccs1
>26,/,Cc1ccc(C(=O)C2=C(O)C(=O)N(c3ncccn3)C2c2cccc(Cl)c2)o1 (stereo not drawn)
>57,i,CCOC(=O)C1CCN(C(=O)c2cn(CCOC)c(=O)c3c2c2ccccc2n3C)CC1
>57,i,Cc1cc(C(=O)c2cccs2)c(N)s1
>57,i,Cn1c(=O)c2c(nc(SCc3ccccn3)n2C)n(C)c1=O
>57,i,CN1CC(=O)NC1=NC(=O)c1ccc(Cl)c(S(=O)(=O)N2CCCCCC2)c1
/,i,Cc1ccc(-n2nnc3c(=O)n(CC(=O)N4CCOCC4)cnc32)cc1
>57,i,CCOC(=O)C1=C(c2ccccc2)OC(N)=C(C#N)C1c1ccco1 (stereo not drawn)
>57,i,Cc1cccc(CSc2nnc(-c3ccco3)n2C)c1
>57,i,CC(C)CN(C(=O)COC(=O)CCN1C(=O)c2ccccc2C1=O)C1CCS(=O)(=O)C1 (stereo not drawn)
/,i,N#Cc1nc(-c2ccc(OCc3ccccc3)cc2)oc1NCc1cccnc1
/,i,CO[C@@H]1CC[C@@]2(C)[C@@H](CC[C@@]3(C)[C@H]2CC=C2[C@H]4CC(C)(C)[C@H](O)[C@@H](OC(C)=O)[C@]4(CO)[C@H](O)C[C@]23C)[C@@]1(C)CO (tested in a mixture with another compound)
>26,/,CCOC(=O)c1cc(C)n(-c2ccc(OC)c(OC)c2)c1C
i,i,c1ccc2nc3c(nc2c1)c1ccccc1n3CCN1CCOCC1
>57,i,CCN=C1SC(CC(=O)Nc2ccccc2OCC)C(=O)N1CC (stereo not drawn)
>57,i,CC(=O)Nc1cccc2c1[n+]([O-])c(C)c(C)[n+]2[O-]
/,i,Cn1cccc1C(=O)N1CCC[C@@]2(CCN(c3cccc(-c4ccccc4)c3)C2)C1

Rewritten with two lines to a compound: entries from further up.
Results follow in this order: PK Bst	YjeE inh
Cc1c(C(C)O)nnn1-c1nonc1N (stereo not drawn)
 : >57	i
O=C(Nc1c(F)cc(F)cc1Br)c1cc(-c2ccc(O)cc2)on1
 : /	i
NS(=O)(=O)O
 : /	i
Cn1c(=O)c2c(nc(CN3CCN(C(=O)c4ccco4)CC3)n2Cc2ccc(F)cc2)n(C)c1=O
 : >57	i
COc1cccc(-c2nc(-c3ccc(NC(=O)Cc4ccccc4OC)cc3)no2)c1
 : >57	i
CCN1CCc2c(sc(NC(=O)c3ccc(S(=O)(=O)N4CCOCC4)cc3)c2C(=O)OC)C1
 : >57	i
